NS1 inh: inhibitors of influenza NS1 protein function | S. cerevisiae slowed by influenza A NS1, growth recovery by OD600 | Potency, µM (highest dose often 46.1 µM), inactives show top-dose activity, positive = more growth | 270,000 tested, 0.4% active; note: actives are rising curves; nearly all actives have a fitted effect of over 50% in size
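S. cerevisiae expressing influenza A NS1, grown in glucose, washed, then diluted 1:100 into pH 6.0 -URA galactose medium with 23 nl compound. Growth recovery read as OD600; NS1-free strain serves as control.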
MARV entry inh: blocks Marburg virus binding to or entry into cells; Potency, µM (top dose mostly 37.8 µM), for inactives: top-dose activity change, negative = inhibition, usual class: inhibitors; AID 540276; Marburg virus pseudotyped entry inhibition, cell reporter; control for the full effect not named in the record; about a third of the inactives were read at about 46 µM; 300,000 tested, 1.8% active; active = well fitted inhibition curve with a large enough effect; inconclusive = small, poorly fitted or top-dose-only effect, or effect the other way; inactive = flat fitted curve, though single readings scatter; tested in HEK293 cells; about a fifth of its hits are not listed in these tables; note: % is set by controls: 0 for no effect and ±100 for the full control effect; luciferase read-out
StopGo reporter: lowers the luciferase signal of an FMDV 2A StopGo reporter; Potency, µM (highest dose often 57.9 µM), for inactives: at the highest dose signal change, negative = less light; 410,000 tested, 1.2% active; human cells with a luciferase reporter of 2A StopGo recoding; control for the full effect not named in the record; active = well fitted falling curve with a large enough effect; inconclusive = small, poorly fitted or top-dose-only effect; inactive = no such curve, though single readings can be large or run the other way; tested in HEK293T cells; note: % is set by controls: 0 for no effect and ±100 for the full control effect; nearly all actives have a fitted effect of over 45% in size; luciferase light after 4 h
Cruzain noTriton: inhibitors of Trypanosoma cruzi cruzain without detergent | Potency, µM, for the others: max response, negative = inhibition, most hits filed as inhibitors | 200,000 tested, 2.3% active | purified cruzain, Z-FR-AMC fluorescence, no detergent | P25779; active = well fitted curve in the direction sought with a large enough effect; inconclusive = small, poorly fitted or top-dose-only effect, or another doubt; inactive = no such curve, though single readings can be large; an effect the other way counts as inactive or inconclusive;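 note: plate controls were enzyme without inhibitor for no effect and buffer without enzyme for full effect; nearly all actives have a fitted effect of over 40% in size; top concentration of the series not given in the record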
Target sequence (P25779 123-467 limits assumed): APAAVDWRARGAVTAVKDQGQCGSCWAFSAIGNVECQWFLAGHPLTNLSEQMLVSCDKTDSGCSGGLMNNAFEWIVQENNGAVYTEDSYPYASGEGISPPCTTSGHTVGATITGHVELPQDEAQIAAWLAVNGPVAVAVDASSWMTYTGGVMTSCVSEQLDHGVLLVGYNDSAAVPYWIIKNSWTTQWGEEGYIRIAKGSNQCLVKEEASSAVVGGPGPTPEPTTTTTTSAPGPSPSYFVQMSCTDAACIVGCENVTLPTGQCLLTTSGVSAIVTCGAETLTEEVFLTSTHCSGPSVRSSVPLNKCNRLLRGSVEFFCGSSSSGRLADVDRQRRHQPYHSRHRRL
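Purified cruzain at 1.5 nM, pre-incubated 15 min with compound at room temperature in 100 mM sodium acetate pH 5.5, 5 mM DTT, 0.00005% Triton X-100. Reaction started with 2 uM Z-FR-AMC; AMC fluorescence increase over 60 s gives rate.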
RE007 growth inh: less growth of the S. pombe RE007 Vpr strain | Potency, µM (highest dose often 92.2 µM), without a hit: top-dose activity change, negative = less growth | 360,000 tested, 0.21% active | S. pombe RE007 Vpr strain, BacTiter-Glo ATP luminescence, 24 h; control for the full effect not named in the record; active = well fitted falling curve with a large enough effect; inconclusive = small, poorly fitted or top-dose-only effect; inactive = no such curve, though single readings can be large or run the other way;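 note: % is set by controls: 0 for no effect and ±100 for the full control effect; nearly all actives have a fitted effect of over 50% in size; the assay follows cell death caused by Vpr and the record does not say whether a fall means rescue or toxicity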
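Fission yeast RE007 carrying one integrated HIV-1 vpr copy, seeded at OD 0.01 in PMG+AL medium with 23 nL pinned compound. Grown 24 h at 30 degrees; viability read by BacTiter-Glo luminescence after 5 min.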
SARS PLpro yeast: blocks SARS-CoV papain-like protease in a yeast assay; S. cerevisiae expressing SARS-CoV PLpro, growth rescue; control for the full effect not named in the record; Potency, µM (series often up to 32.9 µM), without a hit: top-dose activity, positive = growth rescue; 330,000 tested, 0.19% active; AID 485353; note: 0% is about no effect; nearly all actives have a fitted effect of over 55% in size; growth read by luminescence after 48 h
LASV entry inh: Lassa virus entry inhibition; AID 540256; Potency, µM (series often up to 37.9 µM), inactives show top-dose activity change, negative = inhibition, actives largely listed as inhibitors; 300,000 tested, 1.2% active; Lassa virus pseudotype entry inhibition, cell reporter; control for the full effect not named in the record; active means well fitted inhibition curve with a large enough effect; inconclusive means small, poorly fitted or top-dose-only effect, or effect the other way; inactive means flat fitted curve, though single readings scatter; tested in HEK293 cells; note: % is set by controls: 0 for no effect and ±100 for the full control effect; nearly all actives have a fitted effect of over 50% in size; luciferase read-out
Cruzain Triton: cruzain (T. cruzi) inhibition with detergent | P25779 | 200,000 tested, 0.43% active | purified cruzain, Z-FR-AMC fluorescence, 0.01% Triton | Potency, µM, inactives show max response, negative = inhibition, usual class: inhibitors; active = well fitted curve in the direction sought with a large enough effect; inconclusive = small, poorly fitted or top-dose-only effect, or another doubt; inactive = no such curve, though single readings can be large; an effect the other way counts as inactive or inconclusive;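 note: plate controls were neutral wells for no effect and buffer without enzyme for full effect; nearly all actives have a fitted effect of over 40% in size; top concentration of the series not given in the record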
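Z-FR-AMC hydrolysis (2 uM substrate) by cruzain (1.5 nM) monitored kinetically at ex 360/em 450 nm after 15 min room-temperature compound exposure; 0.01% Triton X-100, pH 5.5, 5 mM DTT.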
An asterisk follows results filed as active; u = inconclusive; x = not tested or not shown; & = joins results of further samples; [ ] = remark or other dose. Unless noted, calls come from the whole dose curve; as a rule, active means well fitted rising curve with a large enough effect; inconclusive means small, poorly fitted or top-dose-only effect; inactive means no such curve, though single readings can be large or run the other way. Potency is the fitted concentration of half-maximal effect.

SMILES | NS1 inh | MARV entry inh | StopGo reporter | Cruzain noTriton | RE007 growth inh | SARS PLpro yeast | LASV entry inh | Cruzain Triton
Cc1c(C(c2ccc(Br)cc2)c2c(C)n(C)n(-c3ccccc3)c2=O)c(=O)n(-c2ccccc2)n1C | -4.5% | -21.9% | 9.2% | x | 0.0% | -3.5% | 13.7% | x
COc1ccc(C(=O)N2CCc3cc4c(cc3C2C)OCCCO4)cc1 (stereo not given) | -24.5% | x | u | x | 13.3% | 3.2% | x | x
COC(=O)NN=C1CCC(c2ccccc2)CC1 (stereo not given) | 0.8% | 1.3%[46.1 µM] | 6.2% | x | 4.4% | -1.2% | 0.6%[46.1 µM] | x
O=C1CCCN1CCCNS(=O)(=O)c1ccc(F)c(F)c1 | 5.9% | x | 2.6% | x | -0.3% | -10.2% | x | x
COc1ccc(S(=O)(=O)N2CCCC(C(=O)NC3CCCC3)C2)cc1OC (stereo not given) | -5.4% | 0.8%[46.1 µM] | -21.2% | x | 92.1% | 5.0% | u | x
COc1cccc(-c2nnc(SCC(=O)NCc3ccc4c(c3)OCO4)n2Cc2ccco2)c1 | -0.5% | 32.6% | -13.1% | -14.4% | -1.7% | 5.9% | -13.8% | -4.2%
Cc1cccc(C)c1-n1cccc1/C=C1/C(=N)N2C(=NC1=O)SN=C2S(C)(=O)=O | x | 1.0%[46.1 µM] | -5.9% | x | 1.4% | -5.8% | 10.5% | x
COc1cccc(-c2[nH]c3c(c2-c2c(-n4cccc4)n(C)c(=O)[nH]c2=O)c(=O)[nH]c(=O)n3C)c1 | x | -0.6%[46.1 µM] | -6.9% | 9.9% | x | x | -26.1%[46.1 µM] | -0.8%
COC(=O)C1(C)NC(c2cccs2)C2C(=O)N(c3ccc(F)cc3)C(=O)C21 (stereo not given) | 4.7% | u | 6.2% | 2.6% | -3.4% | 6.3% | 21.4% | 4.3%
CCOC(=O)c1cc(C(=O)NC(C)c2ccccc2)c(=O)[nH]c1C (stereo not given) | 9.6% | x | -5.0% | x | 0.7% | 3.1% | x | x
O=S(=O)(NC1CCCC1)c1cccc(-c2nnc(-c3ccccc3)o2)c1 | 8.3% | -8.3% | 6.4% | 4.3% | 14.3% | 1.1% | 10.8% | -4.1%
O=C(Nc1ccon1)c1ccccc1F | -5.7% | 6.5% | 20.2% | -8.2% | 12.0% | 5.6% | 0.7% | -0.1%
COc1ccc(NC(=O)C2=C(C)Nc3ncnn3C2c2ccccc2C(F)(F)F)c(OC)c1 (stereo not given) | 6.5% | u | -17.7% | 17.5% | 2.1% | -0.5% | 4.4% | -2.2%
CCn1cnc2cc(NCc3nc4ccccc4n3Cc3ccccc3)ccc21 | 12.1% | u | -25.3% | 1.8% | -17.0% | -20.3% | 10µM* | -5.2%
COc1cc(C(=O)OC2C[C@H]3CC[C@@H](C2)N3)ccc1O (stereo not given in full) | 3.9% | x | -8.2% | x | -3.9% | 0.2% | x | x
N#Cc1ccc(COC(=O)C2CCC(=O)N2)cc1 (stereo not given) | 2.1% | 6.1%[46.1 µM] | 12.8% | 12.3% | 48.6% | 3.4% | 5.3% | -4.9%
Cc1ccc(C(C)C)c(OCc2ccc(C(=O)Nc3ccc(S(N)(=O)=O)cc3C)o2)c1 | x | u | -10.6% | u | x | x | -22.1%[46.1 µM] | -27.0%
CCCNC(=O)CCNS(=O)(=O)c1ccc2c(c1)c(=O)n(C)c(=O)n2C | x | 9.4%[46.1 µM] | -17.8% | -8.2% | x | x | -1.7%[46.1 µM] | -0.1%
Cc1ccc(S(=O)(=O)N(C)c2ccc(OCC(=O)NCC3(N(C)C)CCCCC3)cc2)cc1 | x | u | -19.0% | x | 10.3% | -14.4% | -0.1% | x
O=C(COC(=O)c1ccc[n+]([O-])c1)Nc1ccc([N+](=O)[O-])cc1Cl | x | 9.5% | -12.8% | x | 19.2% | 1.4% | 11.7% | x

In another format: results already given
smiles,NS1 inh,MARV entry inh,StopGo reporter,Cruzain noTriton,RE007 growth inh,SARS PLpro yeast,LASV entry inh,Cruzain Triton
COC(=O)C1(C)NC(c2cccs2)C2C(=O)N(c3ccc(F)cc3)C(=O)C21 (stereo not given),4.7%,u,6.2%,2.6%,-3.4%,6.3%,21.4%,4.3%
CCOC(=O)c1cc(C(=O)NC(C)c2ccccc2)c(=O)[nH]c1C (stereo not given),9.6%,x,-5.0%,x,0.7%,3.1%,x,x

Later entries:
SMILES | NS1 inh | MARV entry inh | StopGo reporter | Cruzain noTriton | RE007 growth inh | SARS PLpro yeast | LASV entry inh | Cruzain Triton
COC(=O)C1=C(C)NC(C)=C(C(=O)OC)C1C(=O)OCC(=O)Nc1ccc(C(C)=O)cc1 | -2.5% | 5.0%[46.1 µM] | -3.9% | x | -2.2% | 0.6% | 13.9% | x
COc1ccccc1CCNC(=O)Cc1c(C)c2cc3c(C(C)(C)C)coc3c(C)c2oc1=O | x | 5.6%[46.1 µM] | -10.7% | -18.5% | x | x | 22.3%[46.1 µM] | 3.9%
Cc1ccc(NC(=O)c2cc(S(=O)(=O)N3CCCCC3)c[nH]2)cc1F | -5.3% | x | 17.5%&26.5% | u | -1.8% | -7.5% | -0.7%[46.1 µM] | -0.8%
CCc1nc(N2CCN(C(=O)CCl)CC2)c2c3c(sc2n1)CC(C)CC3 (stereo not given) | -121.6% | u | u | x | -9.7% | -0.8% | -25.4%[46.1 µM] | x
CCC1c2ccc(C)n2CCN1C(=O)Nc1ccccc1OC (stereo not given) | 15.8µM* | 8.3% | 34.5%[activator] | -5.0% | -13.1% | -1.2% | 7.4% | -1.0%
Cc1cc(C)cc(NC(=O)[C@H](Cc2c[nH]c3ccccc23)NC(=O)[C@@H]2Cc3ccccc3CN2)c1 | 2.0% | x | -29.1% | x | -18.1% | -6.5% | x | x
CC1(C)NC(=O)N(CC(O)COc2ccc(N3C(=O)c4ccccc4C3=O)cc2)C1=O (stereo not given) | -7.2% | 2.0% | -28.1% | -5.9% | u | 13.9% | 1.4% | -4.3%
CCCNC(=O)C1CCC(Cn2c(=O)c3sccc3n(CC(=O)N3CCCC(C)C3)c2=O)CC1 (stereo not given) | x | x | 2.2% | 3.6% | x | x | 18.2%[46.1 µM] | -0.6%

Compounds listed so far that contain fluorine:
SMILES | NS1 inh | MARV entry inh | StopGo reporter | Cruzain noTriton | RE007 growth inh | SARS PLpro yeast | LASV entry inh | Cruzain Triton
O=C1CCCN1CCCNS(=O)(=O)c1ccc(F)c(F)c1 | 5.9% | x | 2.6% | x | -0.3% | -10.2% | x | x
COC(=O)C1(C)NC(c2cccs2)C2C(=O)N(c3ccc(F)cc3)C(=O)C21 (stereo not given) | 4.7% | u | 6.2% | 2.6% | -3.4% | 6.3% | 21.4% | 4.3%
O=C(Nc1ccon1)c1ccccc1F | -5.7% | 6.5% | 20.2% | -8.2% | 12.0% | 5.6% | 0.7% | -0.1%
COc1ccc(NC(=O)C2=C(C)Nc3ncnn3C2c2ccccc2C(F)(F)F)c(OC)c1 (stereo not given) | 6.5% | u | -17.7% | 17.5% | 2.1% | -0.5% | 4.4% | -2.2%
Cc1ccc(NC(=O)c2cc(S(=O)(=O)N3CCCCC3)c[nH]2)cc1F | -5.3% | x | 17.5%&26.5% | u | -1.8% | -7.5% | -0.7%[46.1 µM] | -0.8%

Bioassay records as filed in PubChem BioAssay.
